2A firefly = FMDV 2A StopGo reporter, firefly signal; HEK cells with a luciferase reporter of 2A StopGo recoding; Potency, µM (titrated, usually from 57.5 µM), for the others: at the top dose signal change, negative = less light; 120,000 tested, 0.23% active; AID 1745856; active = well fitted falling curve with a large enough effect; inconclusive = small, poorly fitted or top-dose-only effect; inactive = no such curve, though single readings can be large or run the other way; also: nearly all actives have a fitted effect of over 60% in size; overnight with compound
2A Renilla = FMDV 2A StopGo reporter, Renilla signal; HEK cells with a luciferase reporter of 2A StopGo recoding; Potency, µM (doses to about 57.5 µM), for inactives: at the top dose signal change, negative = less light; 120,000 tested, 0.32% active; AID 1745857; active means well fitted falling curve with a large enough effect; inconclusive means small, poorly fitted or top-dose-only effect; inactive means no such curve, though single readings can be large or run the other way; also: nearly all actives have a fitted effect of over 55% in size; overnight with compound
An asterisk follows results filed as active; ? = inconclusive; & = joins results of further samples; [ ] = dose if it differs, or a comment. % is scaled to controls: 0 for no effect and ±100 for the full control effect; potency is read from the fitted curve at half-maximal effect. These rows are one share of the data; rates above refer to the full screens.

SMILES	2A firefly	2A Renilla
CCN(CC)c1sc(S(=O)(=O)c2ccccc2)nc1S(=O)(=O)c1ccc(C)cc1	-7%&-20%	220%&175%[activator]
O=C(Nc1ccc(-n2cccn2)c(F)c1)C1CCCN(C(=O)c2ccoc2)C1 (stereo unspecified)	12%	-9%
Cc1ccc(N(CC(=O)N2CCN(c3cccc(Cl)c3)CC2)S(=O)(=O)N(C)C)cc1	12%	6%
O=C(COC(=O)c1cc2ccccc2oc1=O)Nc1cccc2ccccc12	44%[activator]	0%
CC(Cn1cccn1)NC(=O)N1CCN(Cc2ccco2)CC1 (stereo unspecified)	8%	-9%
N#Cc1ccc(NCCc2coc(-c3ccccc3)n2)nc1	121%[activator]	120%[activator]
Cc1ccc(-n2ncc(C(=O)NCCN3CCC(Cc4ccccc4)CC3)c2C2CCN(C(=O)OC(C)(C)C)CC2)cc1	1%	3%
CCOC(=O)c1ccc(NC(=O)Cn2nc(SC)c(S(=O)(=O)c3ccc(Cl)cc3)c2N)cc1	?	?
Cc1cccc(C(=O)OC2CCN(C)CC2)c1	0%	-1%
C=CC[C@H]1Cc2ccccc2[C@H](CC=C)N1	-16%	-7%
COC(=O)c1cc(OC(=O)c2cccc3ccccc23)cc(C(=O)OC)c1	0%	-5%
Cn1c(=O)c2cc(C(=O)Nc3nc(-c4ccc(C(C)(C)C)cc4)cs3)cnc2n(C)c1=O	21%	-3%
CCOc1ccccc1NC(=O)c1ccc2c(c1)CCCN2S(C)(=O)=O	-4%	0%
O=C(NCC(O)c1ccccc1)c1ccc(CNS(=O)(=O)c2ccc(F)cc2)cc1 (stereo unspecified)	13%	21%
CC(C)(CC(=O)O)CC(=O)NC(c1ccccc1)c1ccco1 (stereo unspecified)	-10%	-17%
CC(C)=CC(=O)Nc1ccc(F)c(Cl)c1	0%	10%
O=c1oc2ccccc2c(NC2CCCCC2)c1NS(=O)(=O)c1ccccc1	6%	33%[activator]
Cc1ccc(CN(Cc2ccco2)C(=O)c2oc3c(C)c(C)ccc3c2C)cc1	-13%	-7%
Cc1ccc(S(=O)(=O)c2nc(-c3ccco3)oc2SC(C)c2ccccc2)cc1 (stereo unspecified)	0%	-15%
CCCCN(C)C(=O)C1CCC(Cn2c(=O)c3sccc3n(Cc3ccccc3)c2=O)CC1 (stereo unspecified)	-8%	-6%

Reprinted from the part before: 4 compounds, then new ones.
SMILES	2A firefly	2A Renilla
O=c1oc2ccccc2c(NC2CCCCC2)c1NS(=O)(=O)c1ccccc1	6%	33%[activator]
Cc1ccc(CN(Cc2ccco2)C(=O)c2oc3c(C)c(C)ccc3c2C)cc1	-13%	-7%
Cc1ccc(S(=O)(=O)c2nc(-c3ccco3)oc2SC(C)c2ccccc2)cc1 (stereo unspecified)	0%	-15%
CCCCN(C)C(=O)C1CCC(Cn2c(=O)c3sccc3n(Cc3ccccc3)c2=O)CC1 (stereo unspecified)	-8%	-6%
Cc1ccc(NC(=O)c2c(NC(=O)C(F)(F)F)sc3c2CCCCC3)cc1	?	-11%
CN1CCN(c2ccc(NC(=O)c3cccc(S(=O)(=O)NCc4ccco4)c3)cc2)CC1	-1%	45%[activator]
CCc1cc(=O)oc2cc(OCC(=O)NCc3ccncc3)c(Cl)cc12	-16%	-17%
CC(NC(=O)c1nccnc1N)c1cccc(Cl)c1 (stereo unspecified)	8%	-16%
CCOC(=O)N1CCN(C(=O)Cn2nc(-c3ccc(F)cc3)ccc2=O)CC1	-4%	-14%
CCn1cc(S(=O)(=O)Nc2cc(Cl)cc(Cl)c2)cn1	25%	183%[activator]
COc1ccc2oc(=O)c(S(=O)(=O)N3CCCCC3)cc2c1	-7%	-11%
O=C(NC(C1CC1)C1CC1)c1ccncc1	15%	-2%
CNC(=O)c1c(I)c(NC(=O)CCCCC(=O)Nc2c(I)c(C(=O)O)c(I)c(C(=O)NC)c2I)c(I)c(C(=O)O)c1I	-12%	-17%
C=Cc1ccc(COc2ccc3c(=O)c(Oc4ccccc4OC)coc3c2)cc1	-2%	14%

Profiles, looked up by structure. Order of screens: 2A firefly, 2A Renilla
CCc1cc(=O)oc2cc(OCC(=O)NCc3ccncc3)c(Cl)cc12 as listed: -16%, -17%
CCOC(=O)N1CCN(C(=O)Cn2nc(-c3ccc(F)cc3)ccc2=O)CC1 as listed: -4%, -14%
CN1CCN(c2ccc(NC(=O)c3cccc(S(=O)(=O)NCc4ccco4)c3)cc2)CC1 as listed: -1%, 45%[activator]

Next part
SMILES	2A firefly	2A Renilla
Cc1ccsc1C(=O)NCc1ccncc1	42%[activator]	28%
O=c1[nH]c(=O)n(Cc2ccccc2)c2nc(-c3ccc(F)cc3)n(CC3CCCO3)c12 (stereo unspecified)	5%	7%
CC(C)C(=O)Nc1ccc(-c2nc3cc(C(C)C)ccc3o2)cc1	96%[activator]	?
COc1ccc(-n2[nH]c(-c3ccccc3)cc2=O)cc1	9%	-8%
COCc1ccc(C(=O)Nc2cccc(C)c2C)cc1	212%[activator]	70%[activator]
O=c1c2cnn(-c3ccc(F)cc3)c2ncn1Cc1cccc(Cl)c1	-19%	-1%
Cc1ccc(SCc2nc3c(c(=O)[nH]c(=O)n3C)n2C)cc1	-3%	-3%
O=C(CCc1ncc(-c2ccc(F)cc2)o1)NCc1ccccc1Cl	77%[activator]	7%
CCCn1nc(C(=O)N(C)Cc2ccc(OC)cc2OC)c2ccccc2c1=O	-3%	0%
CCNC(=O)NC(=O)C(c1ccccc1)N(C)Cc1ccc2ccccc2c1 (stereo unspecified)	3%	21%
O=C(Nc1nnc(S(=O)(=O)N2CCCCCC2)s1)c1ccccc1Br	2%	20%
CCN(CC)c1nn2c(=O)c(C(=O)NCc3ccc(OC)cc3OC)cnc2s1	-17%	-7%
CCOc1ccc(CCNC(=O)c2cc(=O)[nH]c3ccc(S(=O)(=O)N4CCCCC4)cc23)cc1OCC	6%	0%
CCc1nn2c(=O)c(S(=O)(=O)Nc3ccc(C)cc3C)c(C)nc2s1	-13%	-1%
O=C(CCn1ccc2cc(S(=O)(=O)N3CCCC3)ccc21)NCc1ccccc1F	1%	58%[activator]
Cc1ccc(-n2ncc3c(=O)n(Cc4ccccc4C)cnc32)cc1C	-3%	-12%
Cc1cc2ccccc2n1CC(=O)NCC(=O)N1CCCC1	-2%	-3%
COc1ccc(-c2noc(CN3CCCC(C(=O)Nc4ccccc4)C3)n2)cc1OC (stereo unspecified)	-12%	-13%
Cn1nc(-c2ccccc2F)c2cc(C(=O)NCc3ccccc3Cl)sc21	0%	37%[activator]
CC(C)NC(=O)CNC(=O)CCc1ncc(-c2ccccc2)o1	9%	-2%
CSc1ccc(/C=C/C(=O)NCc2ccc(F)cc2)cc1	0%	26%
O=C(NCCc1c[nH]c2ccccc12)c1ccccc1OC(F)F	20%	28%
CC(N(C)CC(=O)NC(C)(C#N)C1CC1)C(C)(C)C (stereo unspecified)	16%	13%
CC(=O)N1CCCC1c1nc2ccccc2n1Cc1ccc(F)cc1 (stereo unspecified)	0%	8%
Cc1noc(C)c1COc1ccc(CC(=O)Nc2nccs2)cc1	12%	7%
CCc1c(C(=O)Nc2scc(-c3cc(C)ccc3C)c2C#N)csc1C	?	?
COc1ccccc1CNC(=O)CCn1cnc2ccccc2c1=O	3%	11%
Cc1cc(NC(=O)Cn2nc(C)n3cccc3c2=O)ccc1Br	-18%	-12%
Cc1c(Cl)cccc1N=Cc1ccc(N(C)C)cc1	0%	-7%
O=C(Cn1c(=O)n(-c2ccccc2)c(=O)c2c3c(sc21)CCCC3)Nc1ccc(F)cc1	-5%	-2%
Cc1ccc(C)c(NC(=O)CSc2ncc(S(=O)(=O)c3ccc(C)c(Cl)c3)c(=O)[nH]2)c1	-9%	-15%
CCc1nn2c(=O)cc(COC(=O)c3ccccc3NC(=O)c3ccccc3F)nc2s1	-2%	-2%
O=C(c1ccccc1-c1ncc(-c2ccccc2)o1)N1CCN(C(=O)C2CC2)CC1	5%	18%
Cn1c(=O)c2c(nc(NCCc3ccccc3)n2Cc2ccccc2Cl)n(C)c1=O	28%	-12%
O=C(NCCc1ccc(Cl)cc1)C1CCN(c2ncnc3c2nc2n3CCCCC2)CC1	0%	-6%
Cc1nc2cc(F)ccc2cc1C(=O)N1CCN(c2ccccc2F)CC1	25%	7%
O=C(CN1CCN(Cc2ccccn2)CC1)Nc1cccc2nsnc12	-5%	-5%
COc1ccccc1N1CCN(c2ncc3c(n2)CCN(Cc2ccccc2F)C3)CC1	-7%	-5%
CC1=CC(C)C2(COC(CC(C)C)OC2)C(C)C1 (stereo unspecified)	1%	3%
CC1(C)Cc2c(C#N)c(OCC(=O)Nc3ccccc3)nc(N3CCOCC3)c2CO1	17%	5%
CCNc1nc(C(F)(F)F)c(C(=O)OCC)s1	41%	6%
COc1ccc(Cn2cc(CN3[C@H](C)COc4cc(Br)ccc4S3(=O)=O)nn2)cc1	-7%	15%
CCc1c(C)sc(NC(=O)c2c(F)cccc2F)c1C#N	19%	10%
COc1cc(C(=O)Nc2c(C(=O)Nc3ccccc3F)oc3ccccc23)cc(OC)c1OC	65%[activator]	1%
O=C(Nc1ccc(S(=O)(=O)N2CCC(c3nc4ccccc4s3)CC2)cc1)c1ccccc1F	-22%	29%
N#C/C(=C\c1cccnc1)C(=O)NC1CCCC1	-11%	-12%
O=C(COc1ccccc1F)Nc1ccc2c(=O)c3cccc(F)c3oc2c1	24%	-11%
CCCNc1c(NC(=O)Nc2ccc(Br)cc2F)c(=O)oc2ccccc12	-12%	-8%
O=S(=O)(c1ccccc1)N1CCN(c2nc(-c3cccnc3)nc3ccccc23)CC1	-5%	-2%
O=C(O)/C(=C/c1ccccc1)c1cccs1	3%	3%

Part of the list above, in markdown.
| Structure | 2A firefly | 2A Renilla |
| --- | --- | --- |
| CCc1c(C)sc(NC(=O)c2c(F)cccc2F)c1C#N | 19% | 10% |
| COc1cc(C(=O)Nc2c(C(=O)Nc3ccccc3F)oc3ccccc23)cc(OC)c1OC | 65%[activator] | 1% |
| O=C(Nc1ccc(S(=O)(=O)N2CCC(c3nc4ccccc4s3)CC2)cc1)c1ccccc1F | -22% | 29% |
| N#C/C(=C\c1cccnc1)C(=O)NC1CCCC1 | -11% | -12% |
| O=C(COc1ccccc1F)Nc1ccc2c(=O)c3cccc(F)c3oc2c1 | 24% | -11% |
| CCCNc1c(NC(=O)Nc2ccc(Br)cc2F)c(=O)oc2ccccc12 | -12% | -8% |

The results go on:
SMILES	2A firefly	2A Renilla
CCOC(=O)COc1ccc2c(=O)c(-c3ccc(OC)cc3)coc2c1	?	2%
O=C(Nc1ccccc1C(=O)OCC(=O)N1CCCC1=O)c1ccco1	-7%	-8%
Cc1ccc(C2=NN(C(=O)Cn3cnc4sccc4c3=O)C(c3ccco3)C2)cc1 (stereo unspecified)	42%[activator]	-16%
O=C(Nc1onc2c1CCCC2)c1ccc(Cl)cc1	0%&26%	10%&22%
COc1ccccc1NCC(=O)NNC(=O)COc1ccc2ccccc2c1	10%	4%
COc1ccc(NC(=O)CSCc2cc(=O)c3cccc(F)c3[nH]2)cc1	4%	-2%
N#Cc1c(N)n[nH]c1CCCNC(=O)NC(c1ccccc1)C1CC1 (stereo unspecified)	-7%	1%
COc1ccccc1NC(=O)Nc1c(NC2CCCCC2)c2ccccc2oc1=O	-6%	34%[activator]
CCn1cc(S(=O)(=O)c2cccc(C)c2)c(=O)c2cc(F)c(N3CCCC(C)C3)cc21 (stereo unspecified)	-12%	-8%
c1ccc(CNC2CCCCC2)cc1	59%[activator]	0%

Random excerpt: 4 records from the list
SMILES	2A firefly	2A Renilla
Cc1ccc(-n2ncc3c(=O)n(Cc4ccccc4C)cnc32)cc1C	-3%	-12%
O=C(NC(C1CC1)C1CC1)c1ccncc1	15%	-2%
CC(N(C)CC(=O)NC(C)(C#N)C1CC1)C(C)(C)C (stereo unspecified)	16%	13%
O=C(Nc1onc2c1CCCC2)c1ccc(Cl)cc1	0%&26%	10%&22%

The list continues.
SMILES	2A firefly	2A Renilla
CCN(C(=O)c1cn(C)c(=O)c2cc(OC)c(OC)cc12)c1ccc(C)c(C)c1	-9%	13%
CC1CCC(N(C)C(=O)CSc2nnc(N)s2)CC1 (stereo unspecified)	76%[activator]	-9%
COc1cccc(-c2nc(-c3cc4cc(OC)ccc4[nH]c3=O)no2)c1	-4%	-2%
COc1ccccc1NC(=O)CSc1nnc(C)n2c1cc1oc(C)cc12	23%	6%
CCCCCCNC(=O)c1cc(-c2ccccc2)nc2ccccc12	7%	-5%
COC(=O)c1sc(NC(=O)COC(=O)c2ccc3c(c2)NC(=O)CS3)c(C(=O)OC)c1C	8%	7%
COc1cc2cc(C(=O)N[C@H](C(=O)Nc3nccs3)C(C)C)n(C)c2c(OC)c1OC	45%[activator]	12%
O=C(c1ccc(C(F)(F)F)cc1)N1CCNCC1	-1%	-16%
N#Cc1nc(-c2ccccc2F)oc1NCCCN1CCOCC1	10%	22%
CC(=O)Nc1ccc(C(=O)Nc2ccc3sc(NC(=O)C(C)C)nc3c2)cc1	-2%	-11%
Cn1c(=O)c2nc(SCc3cccc4ccccc34)n(C)c2n(C)c1=O	52%	0%
COc1ccc(NC(=O)CSc2nnc(CC3CCS(=O)(=O)C3)n2C)cc1 (stereo unspecified)	-10%	-18%
CCn1cc(Br)c(C(=O)Nc2ccc(C)cc2C)n1	146%[activator]	-3%
CCCn1nc(C(=O)OCCOc2ccc(C)cc2)c2ccccc2c1=O	-1%	-6%
O=C(NC1CCN(c2ccccc2S(=O)(=O)C(F)(F)F)CC1)C1CC1	-1%	-3%
Cc1c(S(=O)(=O)N2CCCC2c2ccc(Cl)cc2)cnn1C(F)F (stereo unspecified)	-3%	8%
CCCCCCCCCCCCSCCO	17%	3%
COc1cc(/C=C(/NC(=O)c2ccccc2)C(=O)O)ccc1OCc1ccccc1	0%	38%[activator]
CC(=O)c1c(Cc2ccccc2)sc(C#N)c1C	29%	0%

Assay outcomes (PubChem BioAssay)
